TRPV1 PAM – enhances activation of the human vanilloid receptor TRPV1; Q8NER1; TRPV1-expressing cells, Fluo-8 calcium influx, capsaicin EC20 potentiation; host cell line not named in the record; control for the full effect not named in the record; potentiation, % at 8.33 µM; 0.02% of 320,000 active; AID 540277; active means potentiation above 80%; inconclusive means 30% to 80%; inactive means below 30%; note: 0% is about no effect
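TRPV1-expressing cells were cultured overnight at 35.5C and loaded with Fluo-8 calcium dye for 40 to 90 min at room temperature. After a 10 s baseline, compound was added and calcium influx was read kinetically for 3 min (ex 480/em 520 nm).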
Sfp inh – Sfp phosphopantetheinyl transferase inhibition; Potency, µM, for inactives: max response, negative = inhibition, actives largely listed as inhibitors; AID 1490; Biochemical Sfp PPTase activity, qHTS; 3.5% of 310,000 active; active = well fitted inhibition curve with a large enough effect; inconclusive = small, poorly fitted or top-dose-only effect, or another doubt; inactive = no such curve, though single readings can be large or run the other way;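 note: the enzyme is Sfp with the accession as filed and its product quenches rhodamine fluorescence; potency is the fitted concentration of half-maximal effect; 0% = enzyme reaction without inhibitor and -100% = no enzyme wells; top concentration of the series not given in the record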
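Fluorescence-quenching assay: 15 nM Sfp-PPTase preincubated 15 min at room temperature with compound, then 5 uM rhodamine-CoA and 12.5 uM BHQ-2-labelled YbbR peptide added. Fluorescence (ex 525/em 598 nm) read at start and after 30 min; difference gives rate.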
D2 PAM – potentiates the human D2 dopamine receptor allosterically | DiscoveRx D2 beta-arrestin cells, luminescence, 90 min; 100% = 57 uM dopamine signal | P14416 | 0.23% of 360,000 active | potentiation, % (no concentration beside the values) | AID 624464; active = potentiation of 50% or more; inconclusive = 30% to 50%; inactive = 30% or less;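 note: compound concentration not given in the record; tested on top of an EC20 dose of dopamine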
Target sequence (P14416 whole entry, looked up): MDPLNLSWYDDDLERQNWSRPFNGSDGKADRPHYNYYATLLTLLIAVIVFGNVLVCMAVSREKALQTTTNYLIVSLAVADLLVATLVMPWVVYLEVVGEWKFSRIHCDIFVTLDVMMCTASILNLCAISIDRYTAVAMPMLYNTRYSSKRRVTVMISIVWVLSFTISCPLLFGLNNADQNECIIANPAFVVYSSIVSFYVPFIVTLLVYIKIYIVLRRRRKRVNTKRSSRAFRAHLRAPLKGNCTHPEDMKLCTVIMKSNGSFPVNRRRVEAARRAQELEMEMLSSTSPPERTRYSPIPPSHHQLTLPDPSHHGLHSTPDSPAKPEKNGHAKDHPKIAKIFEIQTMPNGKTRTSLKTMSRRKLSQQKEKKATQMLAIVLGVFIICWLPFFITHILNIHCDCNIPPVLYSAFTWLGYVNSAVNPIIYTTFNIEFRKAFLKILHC
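PathHunter D2 cells, attached overnight at 37 deg C, received compound in DMSO plus dopamine at EC20 (50 nM final) for 90 min at 37 deg C. Beta-arrestin recruitment was read as luminescence after 1 h with detection reagent at ambient temperature.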
Six1-Eya2 inh – inhibitors of human Six1/Eya2 interaction. activity change, % (test concentration not listed). Q15475+O00167. AlphaScreen GST-Six1/His-Eya2 binding, biochemical; hits give low values; control for the full effect not named in the record. 0.56% of 360,000 active; in the data active = activity change below about -65%; inconclusive = about -30% to -65%; inactive = above about -30%; note: % is set by controls: 0 for no effect and ±100 for the full control effect; compound concentration not given in the record
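AlphaScreen luminescence read after one hour at 37 °C in darkness. Pin-transferred compounds met GST-Six1 and His-Eya2 protein (5X stock 250 nM/500 nM) plus glutathione donor and Ni-chelate acceptor beads (5X, 50 ug/mL).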
D2 ag – activates the human D2 dopamine receptor. activation, % (no concentration beside the values). 0.084% of 360,000 active. DiscoveRx PathHunter D2 beta-arrestin, luminescence, 90 min; 100% = 57 uM dopamine signal; in the data active = activation above about 40%; inconclusive = about 15% to 40%; inactive = below about 15%; note: compound concentration not given in the record; the text of the record calls up to 30% inactive
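Agonist mode: compounds alone added to overnight-plated D2 PathHunter cells for 90 min at 37 C, with 57 uM final dopamine (EC100) defining full response. Beta-arrestin recruitment detected by chemiluminescent reagent, read after 1 h at ambient temperature.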
CtBP-E1A inh – inhibitors of CtBP/E1A interaction; 0.49% of 340,000 active; AlphaScreen GST-E1A/His-CtBP binding, 1536-well; hits give low values; control for the full effect not named in the record; AID 651724; activity change, % (no concentration beside the values); in the data active means activity change below about -65%; inconclusive means about -30% to -65%; inactive means above about -30%; note: % is set by controls: 0 for no effect and ±100 for the full control effect; compound concentration not given in the record
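In 5 uL wells, 23 nL compound meets equimolar GST-E1A and His-CtBP (5X stock 125 nM each) for 2 h, 37 °C. Beads (5X, 50 ug/mL) then 1 h, 37 °C, dark.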
PINK1 modulator – changes PINK1 expression; PINK1 immunofluorescence, high-content cytometry, 24 h; Potency, µM (doses to about 76.6 µM), for the others: at the highest dose activation (PINK1 increase), hits mostly activators; 0.2% of 410,000 active; active = well fitted activation curve with a large enough effect; inconclusive = small, poorly fitted or top-dose-only effect; inactive = flat fitted curve, though single readings scatter; cell line not stated here;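 note: potency is the fitted concentration of half-maximal effect; % of control where 0% means no effect; nearly all actives have a fitted effect of over 65% in size; a mitochondrial uncoupler was the plate control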
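Measures PINK1 amount and localization on or inside mitochondria by immunofluorescence. Stable cells get compounds at 5 concentrations for 24 hours before fixation and staining; CCCP controls included.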
The depositor's hits bear a star; ? = inconclusive; . = no result given; [ ] = another dose, or the depositor's remark. Not a hit list. Share with any hit: about 3.7%.

SMILES	TRPV1 PAM	Sfp inh	D2 PAM	Six1-Eya2 inh	D2 ag	CtBP-E1A inh	PINK1 modulator
COc1cc2oc3ccc(C#Cc4ccccn4)cc3c(=O)c2cc1OC	.	.	-2	-4	-0.9	-18	-1.2%
Cn1nnc2cc(NC(=O)N3CC4(C)CC3CC(C)(C)C4)ccc21 (stereo not given)	5	7%	-6	2	-0.9	3	-5.6%[38.3 µM]
O=[N+]([O-])c1ccc(CN2CCCCCC2)cc1	5	11%	-17	-23	-1.8	3	0.9%
Cc1csc(=O)n1CC(=O)OCC(=O)c1ccc(Br)cc1	-1	.	-8	0	-7.6	11	0.0%
CCc1ccc(N2C(=O)CN(Cc3ccc(OC)c(OC)c3)C2=S)cc1	-18	-1%	10	1	4.4	0	2.2%
CSCCC(NS(=O)(=O)c1cccs1)C(=O)NCc1cccs1 (stereo not given)	-4	-6%	-4	6	2.7	3	1.7%
O=C(NC1CSCC1OC(=O)c1ccccc1)c1ccccc1 (stereo not given)	-16	4%	2	0	-5.2	0	0.3%
CCCc1c(C(=O)OCC)[nH]c2c1C(=O)CCC2	-2	-5%	-3	-1	-4.0	-11	0.4%
S=C(NCC1CCCO1)N1CCN(Cc2ccccc2)CC1 (stereo not given)	17	?	-7	-14	-2.4	-21	-1.4%
COC(=O)c1ccccc1NC(=O)N[C@@H](C)C(=O)OC	10	10%	-7	7	-0.4	0	1.1%[38.3 µM]
O=C(Cc1ccsc1)NNC(=O)c1ccc(F)cc1	-15	.	0	8	-0.5	-2	1.3%
COc1ccc([N+](=O)[O-])cc1NCC(=O)Nc1cc(S(=O)(=O)N2CCCCC2)ccc1C	7	.	-1	-5	6.6	.	4.8%
COCCNC(=O)CSc1nnc(-c2ccccc2)c(-c2ccccc2)n1	10	10%	-20	-2	5.1	3	-0.9%
CC(C)(C)CC(=O)OCC(=O)Nc1cc(C(C)(C)C)nn1-c1ccccc1	-19	9%	1	3	3.2	5	0.3%[38.3 µM]
CCCCc1ccc(-c2nc(N)n[nH]2)cc1	7	11%	0	-1	-1.1	-12	-2.2%
Cc1c(C(=O)NN2CCOCC2)oc2ccccc12	9	4%	-4	-1	0.1	9	0.4%
CC(C)Oc1cccc(NC(=O)C2(C)CCN2C(C)C)c1 (stereo not given)	.	.	-7	2	-1.3	1	4.8%
CCOCc1nc2nc(Cl)c(Cl)nc2[nH]1	.	.	1	10	-1.8	3	0.7%
CCN(CC)c1ccc(S(=O)(=O)N2CCOCC2)cc1NC(=O)CSc1cccc[n+]1[O-]	7	-15%	-14	1	-3.4	-1	5.6%
Cc1ccc(OCC(=O)Nc2cc(NC(=O)COc3ccc(C)c(C)c3)cc(C(=O)O)c2)cc1C	?	5%	-18	2	-3.6	.	1.8%
Cc1noc(C)c1-c1nnc(-c2ccc(OC(F)(F)F)cc2)o1	-5	6%	-4	-21	-4.5	-6	4.5%
O=C(CSc1nnnn1C1CCCC1)c1ccc2c(c1)OCCO2	-5	-8%	-22	0	-1.1	4	-2.0%[38.3 µM]
Cc1cccc(NS(=O)(=O)c2cc(C(=O)N3CCN(C)CC3)ccc2C)c1	5	-1%	-16	7	3.5	4	1.8%[38.3 µM]
COc1cccc(C(=O)COc2ccc3c(C)cc(=O)oc3c2)c1	4	-3%	6	3	3.9	10	9.0%
Cc1ccc(S(=O)(=O)NCCC(=O)NCc2cccnc2)cc1	-4	0%	4	8	6.3	5	3.9%

The last six compounds of the section before are carried over, then new ones follow.
SMILES	TRPV1 PAM	Sfp inh	D2 PAM	Six1-Eya2 inh	D2 ag	CtBP-E1A inh	PINK1 modulator
Cc1ccc(OCC(=O)Nc2cc(NC(=O)COc3ccc(C)c(C)c3)cc(C(=O)O)c2)cc1C	?	5%	-18	2	-3.6	.	1.8%
Cc1noc(C)c1-c1nnc(-c2ccc(OC(F)(F)F)cc2)o1	-5	6%	-4	-21	-4.5	-6	4.5%
O=C(CSc1nnnn1C1CCCC1)c1ccc2c(c1)OCCO2	-5	-8%	-22	0	-1.1	4	-2.0%[38.3 µM]
Cc1cccc(NS(=O)(=O)c2cc(C(=O)N3CCN(C)CC3)ccc2C)c1	5	-1%	-16	7	3.5	4	1.8%[38.3 µM]
COc1cccc(C(=O)COc2ccc3c(C)cc(=O)oc3c2)c1	4	-3%	6	3	3.9	10	9.0%
Cc1ccc(S(=O)(=O)NCCC(=O)NCc2cccnc2)cc1	-4	0%	4	8	6.3	5	3.9%
O=C(OCC(=O)N1c2ccccc2Sc2ccccc21)c1ccc[n+]([O-])c1	-5	15%	3	1	0.6	-5	-0.7%
COc1ccc(C(=O)Cc2ccc3c(c2)OCO3)c(O)c1	8	?	-12	-2	-3.3	0	8.2%
COc1cccc(-n2ccnc2SCC(=O)Nc2ccccc2F)c1	5	?	-10	-14	-0.8	-13	-0.1%
CCC(c1nnc(SCC(=O)Nc2cccnc2Cl)n1-c1ccccc1)N(C)C (stereo not given)	-3	-14%	-10	17	-4.4	-3	0.9%
Cc1cc(OC(C)C(=O)Nc2ccncc2)ccc1Cl (stereo not given)	-11	9%	-16	-1	-4.0	.	-1.0%
COc1ccc(N/C=C2\CCc3ccccc3C2=O)cc1	-14	56µM*	-8	5	0.8	18	0.0%
COCCn1nnnc1C(C(C)C)N1CCSCC1 (stereo not given)	-3	?	-9	1	0.9	11	0.1%
C=CCn1c(SCC(=O)Nc2ccc(OC)cc2)nc2c([nH]c3ccccc32)c1=O	2	-4%	0	7	0.0	-2	0.8%
CCc1cc(=O)oc2c(C)c(O[C@@H]3O[C@H](CO)[C@@H](O)[C@H](O)[C@H]3O)ccc12	6	8%	-3	0	0.1	11	-0.9%
CCOc1ccccc1-n1c(CN2CCN(C(=O)c3ccco3)CC2)nc2ccccc2c1=O	7	?	-6	-12	-1.4	-13	-3.7%[38.3 µM]
CN(CCOc1ccc(F)cc1)Cc1ccccc1	0	-12%	-29	1	-1.9	-1	5.8%
CN(C)S(=O)(=O)c1ccc(C(=O)NCCN2C(=O)S/C(=C\c3cccnc3)C2=O)cc1	-13	40µM*	-17	20	-2.7	0	1.7%
Cc1ccc(NC(=O)Nc2cnc3ccccc3c2)cc1	?	-7%	-10	-1	-0.8	2	12%
COC(=O)C1(S(=O)(=O)c2cc(Br)cc3c2N(C(C)=O)CC3)CC1	8	10%	12	-1	0.9	1	3.9%
COc1cccc(OC)c1OCCN1CCC(C(=O)NC(c2ccccc2)c2ncccc2C)CC1 (stereo not given)	.	.	-11	-18	-5.5	1	0.4%
Cc1cccc(N2CCN(C(=O)CCNS(=O)(=O)c3cccs3)CC2C)c1 (stereo not given)	-10	14%	0	-8	-0.4	-13	0.5%
CC1=NN(/C(=N\c2nnc(C)s2)Nc2ccc(C)cc2)[C@H](c2ccc(C)cc2)S1	-27	-6%	-17	-9	-3.2	-1	-0.8%
Cc1ccc2cc(C)c(Sc3nnnn3-c3ccccc3)nc2c1	0	-2%	-16	0	1.5	12	?
Cn1c(-c2ccccc2)cnc1SCC(=O)N1CCCCC1	-18	-6%	-2	7	2.0	-5	-0.1%
Cc1ccc(/C=N/Nc2ccc(F)cc2F)s1	9	4%	5	-14	?	-14	4.8%
CC(=O)Nc1cc(-c2ccc(Cl)cc2)nn1-c1ccccc1	7	-7%	1	-2	-6.5	2	-0.8%
O=C(COc1ccc(S(=O)(=O)N2CCCCC2)cc1)N1CCOCC1	-14	6%	-8	1	-3.7	-6	2.3%
Cc1[nH]c2ccccc2c1/C=C(\C#N)S(=O)(=O)c1ccccc1	-11	7%	-12	-3	-4.0	-12	2.1%[38.3 µM]
CCOC(=O)/C(C#N)=C1/C=C(C)c2ccccc2N1	-22	13%	-5	23	2.1	.	-1.9%
O=C1CC(c2c(F)cccc2Cl)C(n2cncn2)C(O)=C1C1NCCc2ccccc21 (stereo not given)	-33	5%	3	0	-5.3	5	0.9%
Remaining list, next part.
SMILES	TRPV1 PAM	Sfp inh	D2 PAM	Six1-Eya2 inh	D2 ag	CtBP-E1A inh	PINK1 modulator
COc1ccc(CCn2nnnc2C(C(C)C)N2CCC(C(N)=O)CC2)cc1OC (stereo not given)	12	11%	0	1	-3.4	0	-0.1%
Nn1c(SCc2cccc(C(F)(F)F)c2)nnc1-c1ccco1	-8	1%	-10	-1	3.4	0	-0.4%
COc1ccc(Cl)cc1N(CC(=O)N1CCCC1)S(=O)(=O)c1ccc(C)cc1	-15	10%	-3	7	1.6	6	2.7%
CCCc1nc(SCC(=O)N2CCC(C)CC2)c2c(=O)n(C)c(=O)n(C)c2n1	-3	-2%	2	1	-0.5	0	-1.8%
CCCCN(C(=O)CSCC(=O)Nc1ccc(OC)cc1)c1c(N)n(CCC)c(=O)[nH]c1=O	7	.	-8	5	0.7	0	0.5%
O=C(CSc1nccn1Cc1ccccc1)Nc1nccs1	-12	10%	-33	-21	-0.7	-10	1.8%
COc1ccc(C2=C(c3ccc([N+](=O)[O-])cc3)C(=O)OC2)cc1	-4	-9%	-13	0	-6.8	2	-0.9%
Cc1ccc(Cl)cc1NC(=S)N(CCCN1CCN(C)CC1)Cc1cccs1	0	10%	-18	-9	-6.6	-7	1.3%
CCc1ccccc1N(CC(=O)N1CCN(c2ccccc2)CC1)S(C)(=O)=O	-11	14%	1	-3	-1.1	-1	0.4%
CC(=O)c1cn(CC(=O)Nc2ccccc2F)c2ccccc12	-24	16%	-2	4	0.0	-18	0.9%
COc1ccc(CNC(=O)c2cccc3c(-c4cnn(C)c4)coc23)cc1OC	.	.	6	-20	7.3	?	0.3%
O=CNCC(=O)NCCc1ccc(Cl)cc1	4	10%	-2	0	1.8	7	0.0%[38.3 µM]
COc1ccc(NC(=O)c2sccc2C)cn1	-8	5%	0	0	0.0	5	0.2%
O=C(CSc1nnc(NC2CCCCC2)s1)NN1C(=O)NC2(CCCCC2)C1=O	-1	8%	2	15	0.4	19	0.5%
COCCCNc1oc(-c2cccs2)nc1S(=O)(=O)c1ccc(C)cc1	-21	-3%	3	-3	-8.8	-14	0.4%
c1ccc(Cn2nnc3c(NCC4CCCO4)ncnc32)cc1 (stereo not given)	2	-9%	-2	3	-0.7	4	1.5%[38.3 µM]
O=C(CN1c2cccc3cccc(c23)S1(=O)=O)Nc1c(F)c(F)c(F)c(F)c1F	.	.	-2	-12	4.8	0	-3.9%
O=C(c1cccc(Cl)c1)N1CCN(CCCc2ccccc2)CC1	6	-25%	-11	2	-0.2	3	-2.8%
CCn1ncc2c1C(=O)NC1c3ccccc3C(=O)N21 (stereo not given)	-10	2%	-9	2	-2.1	2	-3.7%
CC(C)(C)SCCNC(=O)c1cccc([N+](=O)[O-])c1	3	1%	-15	8	-1.1	2	-0.1%

Compound activity: PubChem, National Center for Advancing Translational Sciences (NCATS)
